Compound activity from PubChem BioAssay.
ALR inh: blocks human ALR sulfhydryl oxidase activity; hit rate 3.8% among 290,000; purified ALR, DTT oxidation, H2O2 HRP-luminol luminescence; AID 485317; inhibition, % (no concentration beside the values);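 active means mean and each replicate at 75% or more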;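 further: stock transfer was 7.5 nL into about 7.5 µL; 0% = neutral wells and 100% = wells with inactivated enzyme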
Ecoli growth: E. coli growth inhibition. Escherichia coli growth, OD600, 23 h; hits give low values. hit rate 0.21% among 330,000. OD600 absorbance (test concentration not listed);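 active means OD600 absorbance below the run mean of sample wells minus 3.6 SD, in any replicate, cut at about 0.56 in these data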;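 further: stock transfer was 300 nL into about 60 µL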
FGF22 binding: shifts melting point of recombinant human FGF22; Q9HCT0; recombinant FGF22 thermal shift, SYPRO orange fluorescence; percent of sucrose octasulfate shift, DMSO zero; calls only at 9.99 µM; hit rate 1.5% among 340,000; AID 651658;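 active means melting point raised past a set limit in the mean and every replicate; three in four hits are not shown here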
Target sequence (Q9HCT0 whole entry, looked up): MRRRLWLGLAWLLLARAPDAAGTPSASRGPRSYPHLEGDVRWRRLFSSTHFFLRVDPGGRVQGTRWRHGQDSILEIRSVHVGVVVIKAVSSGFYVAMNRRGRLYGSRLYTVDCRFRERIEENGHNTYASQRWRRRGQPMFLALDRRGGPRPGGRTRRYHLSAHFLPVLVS
UCH37 DUB inh: blocks the human deubiquitinase UCH37 | inhibition, % (no concentration beside the values) | purified proteasome/UCH37, Ub-AMC cleavage fluorescence | hit rate 0.33% among 330,000;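 active means mean of two replicates above 20%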;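 further: 0% = compound-free wells with enzyme and 100% = wells lacking proteasome; stock transfer was 100 nL into about 20 µL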
Target sequence (Q9Y5K5 whole entry, looked up): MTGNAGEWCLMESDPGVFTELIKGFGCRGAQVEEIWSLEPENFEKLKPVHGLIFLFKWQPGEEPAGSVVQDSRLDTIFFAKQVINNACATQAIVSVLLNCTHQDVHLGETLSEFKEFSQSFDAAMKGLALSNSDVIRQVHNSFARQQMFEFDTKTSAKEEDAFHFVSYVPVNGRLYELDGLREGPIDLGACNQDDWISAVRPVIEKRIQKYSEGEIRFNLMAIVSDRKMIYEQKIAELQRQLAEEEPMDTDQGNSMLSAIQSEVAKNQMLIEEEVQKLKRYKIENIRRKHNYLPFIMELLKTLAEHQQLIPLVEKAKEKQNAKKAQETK
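Schedule: 30 min plus 25 min, room temperature / Material: human UCH37 within purified proteasomes / Technique: AMC fluorescence intensity at 355/460 nm / Buffer or medium: pH 7.4 Tris-HCl (50 mM) with ovalbumin, ATP-MgCl2, DTT / Controls: wells without proteasome as full block, compound-free enzyme plus substrate as uninhibited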
LANA-H2B inh: blocks KSHV LANA binding to histone H2A/H2B | hit rate 0.6% among 320,000 | inhibition, % (test concentration not listed) | Q9QR71 | cell-free LANA-H2A/H2B peptide, fluorescence polarization | AID 2629; in the data active means inhibition mostly above about 10%, no sharp cut-off; inactive means mostly below about 6.7%;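 further: stock transfer was 7.5 nL into about 10 µL; 0% = median of vehicle wells and 100% = median of positive control wells; one replicate is shown; the record names a cut of 25% in any replicate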
Beta2AR agonist: agonists of human beta-2 adrenergic receptor inducing internalization; P07550; response, % (no concentration beside the values); hit rate 0.43% among 340,000; AID 504454; Am2.2-beta2AR cells, FAP receptor internalization, flow cytometry; reference of the scale not given here;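 active means response above a set limit, near 3 SD of response in nonfluorescent compounds, cut at about 42% in these data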;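 further: stock transfer was 100 nL into about 11 µL; a reference agonist was the positive control; negative values mostly stem from fluorescent compounds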
HNF4A DNA FP: change in binding of human HNF4 alpha to DNA; P41235; HNF4a-FITC DNA binding, fluorescence polarization, 1 h; activity change, % at 10 µM; hit rate 0.3% among 360,000; AID 1224865; in the data active means activity change above about 30%, passing the limit was not always enough;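 further: controls were the assay level and a saturating level of protein; the project sought stronger binding though the title names inhibitors; some compounds called inactive have numbers as strong as hits; positive values seem to mean higher polarization but the record does not say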
Target sequence (P41235 whole entry, looked up): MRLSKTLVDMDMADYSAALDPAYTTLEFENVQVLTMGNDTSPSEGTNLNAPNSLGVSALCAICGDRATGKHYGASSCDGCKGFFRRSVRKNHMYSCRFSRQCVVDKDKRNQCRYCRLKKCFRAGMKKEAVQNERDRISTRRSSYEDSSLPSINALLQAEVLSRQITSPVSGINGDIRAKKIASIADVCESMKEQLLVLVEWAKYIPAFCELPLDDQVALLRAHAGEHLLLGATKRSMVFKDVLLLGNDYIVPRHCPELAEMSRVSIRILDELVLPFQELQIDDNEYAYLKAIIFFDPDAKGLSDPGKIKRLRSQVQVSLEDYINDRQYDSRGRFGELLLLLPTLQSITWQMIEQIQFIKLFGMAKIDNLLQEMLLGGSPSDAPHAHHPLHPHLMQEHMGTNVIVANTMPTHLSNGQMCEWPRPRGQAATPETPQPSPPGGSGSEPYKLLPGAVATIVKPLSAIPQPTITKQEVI
* = called active by the depositor; i = inactive; nt = no result given. This is a subset; the hit share may differ from the screen's.

Every second line gives: LANA-H2B inh, FGF22 binding, HNF4A DNA FP, Ecoli growth, ALR inh, UCH37 DUB inh, Beta2AR agonist
COc1ccc(NC(=O)c2ccc3nccnc3c2)cc1
 : 2.8, nt, 0.1, 0.76, -11, -0.2, -3
CC1Oc2ccccc2C=C1/C=C1/SC(N2CCOCC2)=NC1=O (centres undefined)
 : -4.4, nt, 2.1, 0.72, 10, -4.0, -10
CN(C)CCNC(=O)c1cc(Br)ccc1Cl
 : 1.0, i, 0.9, 0.74, -9, 0.9, 0
O=C(O)c1ccccc1C(=O)N1CCN(c2cccc(Cl)c2)CC1
 : 1.1, nt, -2.2, 0.7, -3, 2.8, -2
COc1ccc(-n2cnc3sccc3c2=O)cc1
 : -0.7, i, 0.4, 0.66, -17, 4.1, -1
Nc1nc2n[nH]nc2c(=O)[nH]1
 : 4.8, i, 2.6, 0.78, -44, 1.8, -1
O=C(/C=C/c1ccccc1[N+](=O)[O-])c1ccc(F)cc1
 : 5.2, i, -1.6, 0.68, 98*, 3.4, 5
Cc1nn(-c2cc(N3CCNCC3)ccc2[N+](=O)[O-])c(=O)c2ccccc12
 : 2.0, nt, 1.2, 0.72, 7, 5.7, -20
Cc1nnc2n1CCCCC2
 : -3.1, i, -1.3, 0.69, -4, 6.7, -2
CCCCNC(=O)C1c2cc(OC)c(OC)cc2C(=O)N(C)C1c1ccc(OC)cc1 (centres undefined)
 : -2.9, nt, -3.4, 0.69, -11, 1.6, -4
CC(C)CC(=O)NC1(C(F)(F)F)C(=O)N(Cc2ccccc2)C2=C1C(=O)CC(C)(C)C2 (centres undefined)
 : 4.5, nt, 4.0, 0.7, nt, 2.7, 3
O=C1CC(c2ccc3c(c2)OCO3)C2=C(CCCC2=O)N1 (centres undefined)
 : -4.8, nt, 2.6, 0.76, -10, 5.5, 2
O=C(NC(=S)Nc1cccc2cccnc12)c1cccs1
 : -1.7, nt, -2.4, 0.68, -12, 1.1, -2
CCOc1ccc(NC(=O)C2CCCN(C)C2)cc1 (centres undefined)
 : -0.8, i, 5.8, 0.7, 24, -2.6, 1
C/C(=N\NC(=O)c1ccc(C)cc1C)c1ccc2c(c1)Nc1ccccc1S2
 : -4.5, nt, -0.2, nt, 29, nt, 6
C/C=C/Cn1c(SCc2ccc(Cl)cc2)nc2c1c(=O)[nH]c(=O)n2C
 : -2.0, nt, -0.8, 0.7, -11, -0.2, -4
COc1ccc(NC(=O)c2ccc(CN(c3cc(Cl)ccc3C)S(=O)(=O)c3ccccc3)cc2)cc1OC
 : -0.8, nt, 0.1, 0.79, -5, -1.4, 8
COc1ccc(CN2CCNC(=O)C2CC(=O)NC2CCCC2)cc1OC (centres undefined)
 : 1.8, i, -2.7, 0.67, -2, -0.7, 7
CN(CP(=O)(O)CN(C)S(C)(=O)=O)S(C)(=O)=O
 : 1.8, nt, -1.6, 0.67, -10, 1.2, 2
COc1cccc2cc(C(=O)N3CC(C)OC(C)C3)c(=O)oc12 (centres undefined)
 : -3.3, i, 3.4, 0.68, -7, -3.0, 1
CCCOc1ccc(Cc2c(Cl)nc(SC)nc2N(C)C)cc1
 : 2.6, i, 1.1, 0.71, -7, 2.7, -27
Cc1ccc(-c2nnc3cccc(Cl)n23)cc1
 : -2.7, i, 4.6, 0.7, -14, -0.3, -6
O=C(COc1cc([N+](=O)[O-])cc2cccnc12)NCCC1=CCCCC1
 : -1.5, i, -5.0, 0.61, -26, 3.6, -2
CCCC(=O)N(CCN(C(=O)CCC)c1ccccc1)c1ccccc1
 : -0.6, nt, 0.5, 0.71, -2, -0.4, -10
CC(C)[C@@H](NC(=O)OC(C)(C)C)C(=O)NCC1CCC(C(=O)N[C@@H](Cc2ccccc2)C(=O)O)CC1 (some centres undefined)
 : -0.2, i, 0.7, 0.68, -2, 1.1, -31
CC(=O)N(c1ccccc1)c1nc(C)cc(C)c1C#N
 : -3.2, nt, -1.4, 0.74, 3, -0.2, -3
NC(=O)NC(CC(=O)NCCc1ccc(S(N)(=O)=O)cc1)c1ccc(Cl)cc1 (centres undefined)
 : -4.1, i, -1.9, 0.72, -3, 2.9, -6
CC(C)N1C(=O)C2C(C(=O)NCc3ccccc3)C3C=CC2(O3)C1C(=O)NC(C)(C)C (centres undefined)
 : -1.3, nt, -2.9, 0.67, nt, 0.1, 0
COc1ccc(C(=O)/C=C/c2ccc(F)cc2)c(OC(=O)c2ccc([N+](=O)[O-])cc2)c1
 : 0.6, nt, 2.3, 0.73, nt, 7.4, 6
O=C(Cc1ccccc1)NCCS(=O)(=O)N1CCN(c2ccccc2)CC1
 : 3.9, nt, -0.8, 0.64, nt, 3.6, -1
Cc1occc1-c1nnc(SCC(=O)c2c(N)n(Cc3ccccc3)c(=O)n(C)c2=O)n1C
 : -2.5, nt, -1.4, 0.73, -4, 2.7, -4
CCCCNCC1C(Oc2ccc(Cl)cc2)C(=O)N1c1ccccc1C (centres undefined)
 : -2.4, i, 1.1, 0.63, -10, 2.7, 21
COc1ccc(NC(=O)CSc2nnc(NC(=O)CN3CCOCC3)s2)cc1
 : -2.5, nt, 4.5, 0.62, nt, -1.8, 2
CCCCCNC(=O)C1CC=CCC1C(=O)O (centres undefined)
 : -0.5, nt, -0.5, 0.68, -5, 2.7, 1
Cc1ccccc1Nc1nnc(SCc2cc(=O)n3ccsc3n2)s1
 : -0.8, nt, -0.2, 0.72, 1, -0.5, -3
CCn1c(Cc2ccccc2)nnc1SCC(=O)N1CCCCC1
 : 0.7, nt, 2.6, 0.74, -6, 4.4, 1
CC(C)=CCN1CCN(Cc2cccn2-c2nccs2)CC1CCO (centres undefined)
 : nt, i, 0.4, 0.7, nt, 3.7, -8
CCc1ccccc1NC(=O)c1cc(C2CC2)on1
 : 4.7, i, -1.9, 0.68, -14, 2.7, -7
CCN(Cc1ccccc1)S(=O)(=O)c1ccc(S(=O)(=O)N2CCN(CCC#N)CC2)cc1
 : 1.1, i, 3.2, 0.75, -4, 4.3, -7
Cc1c(N=Cc2ccc(-c3ccc(Cl)cc3)o2)c(=O)n(-c2ccccc2)n1C
 : -0.9, nt, -1.4, 0.78, 1, 7.8, 9
O=C(COC(=O)c1ccc(S(=O)(=O)N2CCCC2)cc1)Nc1cccc(Br)c1
 : 0.3, i, 3.3, 0.67, 1, 3.3, -7
CC(Oc1ccc(S(=O)(=O)N2CCCC2)cc1[N+](=O)[O-])C(=O)NC1(C#N)CCCCC1 (centres undefined)
 : -7.3, i, -0.3, 0.69, -6, -0.7, -1
COC(=O)c1ccccc1NC(=O)C1CC(c2ccccc2O)=NO1 (centres undefined)
 : -7.6, nt, 2.5, 0.68, 1, 0.6, -3
COc1ccc(C(=O)N2CCN(c3c(C)cccc3C)CC2)cc1OC
 : 1.3, i, -1.4, 0.78, -3, 3.3, 6
O=C(Cc1c[nH]c2ccccc12)N1CCc2ccccc21
 : -2.6, nt, 7.0, 0.72, -22, 1.5, -9
CCOC(=O)c1c(NC(=O)c2ccncc2)sc(C)c1C
 : 5.8, nt, -4.5, 0.68, nt, 0.1, -11
CCC(C(=O)NCCc1ccccc1)c1ccccc1 (centres undefined)
 : 4.5, i, -4.0, 0.68, -16, -1.3, -3
Nc1ccn(CC(=O)N[C@H](CO)Cc2c[nH]c3ccccc23)c(=O)n1
 : -0.3, i, 2.4, nt, 49, 6.4, nt
COCCn1c(N)c(C(=S)NC(=O)c2cccs2)c(=O)[nH]c1=O
 : -2.6, i, 8.0, 0.67, nt, 2.6, 8
CCOc1cc(CNCC2CCCN2CC)cc(Cl)c1OC (centres undefined)
 : -0.4, i, -0.1, 0.67, -11, 0.8, -4
CC1(c2ccc3ccccc3c2)NC(=O)N(CC(=O)N2CCC(C(N)=O)CC2)C1=O (centres undefined)
 : 0.8, i, 4.7, 0.65, -12, 0.4, -3
Cc1nc(CCNC(=O)c2cccs2)cs1
 : -14, i, -0.5, 0.67, -9, -0.1, -5
COc1ccc2nc(SCC(=O)Nc3ccccc3C#N)[nH]c2c1
 : 4.5, nt, 0.0, 0.68, -3, 0.5, 2
COC(=O)c1ccc(CN2CCCC(C(=O)Nc3ccc(-c4ccn[nH]4)cc3)C2)cc1 (centres undefined)
 : 2.0, i, 1.2, 0.74, -4, 1.7, 17
CCC(=O)Nc1cccc2cccnc12
 : -3.2, i, -0.7, 0.62, -3, -2.4, -4
Cc1nc(CN2CCCC2=NC#N)n(-c2ccccc2)n1
 : 1.2, i, 1.2, 0.67, nt, 0.7, -9
CCOc1cc(CO)ccc1OCC(=O)N1CCCCC1
 : 4.2, nt, 1.4, 0.72, -3, 1.7, -7
Cc1c(CN2CCC(C(=O)Nc3ccc(Oc4ccccc4)nc3)CC2)cnn1C
 : 2.6, i, 1.2, 0.68, 0, 1.1, -13
CNC(=O)C(=O)N/N=C/c1cccnc1
 : 3.6, i, 1.3, nt, 7, nt, -2
O=C(N/N=C/c1ccccc1F)c1ccc(COc2ccccc2Cl)o1
 : -5.7, nt, 1.4, nt, 0, nt, 9

More compounds:
Every second line gives: LANA-H2B inh, FGF22 binding, HNF4A DNA FP, Ecoli growth, ALR inh, UCH37 DUB inh, Beta2AR agonist
Nc1c(S(=O)(=O)O)cc(NC(=O)c2ccccc2)c2c1C(=O)c1ccccc1C2=O
 : 0.0, nt, -23, 0.7, -11, 33*, 16
Cc1noc2ncnc(N3CCN(c4cccc(Cl)c4)CC3)c12
 : -3.5, i, 5.0, 0.66, 2, -0.7, -5
NC(=O)NN=C1CCn2cccc21
 : nt, i, -1.5, nt, nt, nt, 6
CCOC(=O)c1c(NC(=O)C2=C(C)NC(=S)NC2c2ccccc2C(F)(F)F)sc(C)c1C (centres undefined)
 : nt, nt, -1.0, 0.69, nt, -30, 4
CCc1noc(C)c1C(=O)N(CCOC)c1c(N)n(CC(C)C)c(=O)[nH]c1=O
 : -1.4, i, -3.7, 0.7, 0, 0.3, 5
Cc1csc(NC(=O)C2CCCC2)n1
 : -4.5, nt, 1.5, 0.7, -4, 0.5, -1
CC(=O)/C(N=Nc1cc2c(c([N+](=O)[O-])c1C)C(C)(C)CC2(C)C)=C(\C)O
 : -2.5, i, -2.2, 0.63, -9, 6.9, 21
Cc1c(C(=O)NC(c2ccccn2)C(F)(F)F)oc2c(F)cccc12 (centres undefined)
 : -3.0, i, 1.2, 0.73, 0, -0.1, 5
CC(C)(C)c1ccc(CS(=O)CC(O)CO)cc1 (centres undefined)
 : 1.8, nt, 2.2, 0.7, -1, 3.0, -2
CC1=NN(c2ccc(S(=O)(=O)O)cc2Cl)C(=O)C1
 : 2.4, i, -1.5, 0.69, nt, 5.6, -2
O=C(NC(Cc1ccccc1)C(=O)O)/C(=C\c1ccco1)NC(=O)c1ccccc1Br (centres undefined)
 : 0.2, nt, 0.6, 0.69, 4, 3.4, -2
Cc1onc(-c2c(Cl)cccc2Cl)c1C(=O)NCc1ccc(S(N)(=O)=O)cc1
 : 1.7, i, 0.9, 0.71, -4, 3.1, 3
C/C(=N\OC(=O)NC(C)C)c1sc(-c2ccc(Cl)cc2)nc1C
 : 3.4, nt, -0.2, nt, -2, nt, 1
CC(=O)Nc1ccccc1OC(C)C(=O)NC(C)c1ccc(F)cc1 (centres undefined)
 : 0.5, i, -3.4, 0.62, 18, 1.1, 5
COc1ccccc1C(=O)Nc1ccnn1C1CCN(Cc2cnn(C)c2C)CC1
 : -1.5, i, -3.9, 0.7, -1, 4.5, -4
N#CCCN(CC(=O)O)S(=O)(=O)c1ccccc1
 : 1.8, nt, 0.5, 0.72, 1, -0.6, 1
Cc1ccc(-c2csc3nnc(SCC(=O)NCc4ccc5c(c4)OCO5)n23)cc1
 : -5.8, nt, 1.1, 0.69, -1, 4.5, 8
CC(=O)c1nn(-c2cccc(Br)c2)cc1C(=O)c1ccco1
 : 1.7, nt, -3.5, 0.71, -7, 1.6, -7
COc1ccc(OCC(=O)N2N=C(C(F)F)CC2(O)C(F)F)cc1 (centres undefined)
 : -2.0, nt, -1.8, 0.67, -6, 2.8, 17
COC(=O)c1ccc(COC(=O)CNS(=O)(=O)c2ccc(C)cc2)cc1
 : 3.8, i, 0.4, 0.7, 0, -0.2, -2
Cc1cc(-c2ccccc2)c2c3c(c(-c4ccccc4)n2n1)c(=O)n(C)c(=O)n3C
 : -4.7, nt, 25, 0.72, 8, 2.0, 4
